TAR Tat displ – TAR RNA-Tat peptide displacers, HIV-1, primary screen, biochemical, FRET, FAM/TAMRA-labeled Tat. HIV-1 TAR RNA, Tat peptide displacement FRET; stronger effect = higher value. z-score (concentration not given with the values). hit rate 0.6% among 100,000. AID 1259389, 2018;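 note: score is relative to mean and SD of negative controls; some compounds called inactive have numbers as strong as hits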
CDC25B CDK2 inh – primary biochemical HTRF screen for blockers of M-phase inducer phosphatase 2 binding to CDK2/cyclin A. P30305+P24941. HTRF CDC25B-CDK2/CyclinA binding, anti-His/anti-Flag; stronger effect = higher value. z-score (test concentration not listed). hit rate 0.72% among 94,000;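 note: score is relative to mean and SD of negative controls; strong numbers were not always called active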
* marks the source's active call; other numbers are inactive results; nt = no result given.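 Rule for the calls: active = z-score from 3 up in half or more of its runs; inactive = the rest.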

The line under a structure holds: TAR Tat displ	CDC25B CDK2 inh
- O=C1Nc2ccc(S(=O)(=O)NCc3ccccc3Cl)cc2C1C1CCCC1 (stereo not drawn)
    -0.57	nt
- Cc1ccc(C(Nc2ccccn2)c2ccc3cccnc3c2O)cc1 (stereo not drawn)
    nt	-0.83
- O=C(c1cnc2sccn2c1=O)N1CCN(C(c2ccccc2)c2ccccc2)CC1
    nt	-0.57
- COCCNc1ncnc2c1c(-c1ccccc1)cn2-c1ccccc1Cl
    0.16	-1.3
- COc1ccc(-c2cc3nc(C)cc(N4CCC(C)CC4)n3n2)cc1OC
    1.1	0.04
- O=C(NCCO)c1nnc(-c2ccc3c(c2)OCO3)o1
    1.5	0.57
- O=c1cc(Nc2ccc(Cl)cc2)nc(COc2ccccc2)[nH]1
    nt	-0.52
- c1ccc(-c2cc3nccc(-c4ccccc4)n3n2)cc1
    nt	-2
- CCc1ccc(C2CC(c3ccc(SC)cc3)n3nnnc3N2)cc1 (stereo not drawn)
    2.4	nt
- CC1Oc2ccc(C(=O)CCC(=O)O)cc2NC1=O (stereo not drawn)
    1.4	-0.53

The results go on:
The line under a structure holds: TAR Tat displ	CDC25B CDK2 inh
- CC(C)CC(CCC(=O)Nc1nccs1)C(=O)O (stereo not drawn)
    1.7	-1.8
- CC(=O)N1c2c(cc(Br)cc2S(=O)(=O)NCc2cccnc2)CC1C (stereo not drawn)
    nt	0.54
- O=C(Nc1sc2c(c1C(=O)NCc1cccnc1)CCCC2)c1cc(=O)c2ccccc2o1
    -2	-3.1
- COc1ccc(N2C(=O)CC(Sc3ncn[nH]3)C2=O)cc1OC (stereo not drawn)
    0.2	0.05
- O=C1CC(c2nc3ccccc3n2Cc2ccc(F)cc2)CN1c1ccccc1 (stereo not drawn)
    -0.39	-1.8
- CC(C)c1ccc(C2CC(=O)N3CN(Cc4ccco4)CSC3=C2C#N)cc1 (stereo not drawn)
    -0.71	-0.56
- CC1(C)CCC(NC(=O)[C@@H](N)CCC(=O)O)CC1
    nt	-1.6
- CN(C(=O)C1CCCN(S(=O)(=O)c2cccc3nsnc23)C1)c1ccc(Br)cc1 (stereo not drawn)
    0.9	1.3
- Cc1cc(C)c2c(n1)sc1c(=O)n(CCc3ccccc3)nnc12
    0.56	-1.5
- O=C(Cn1cc2c(n1)CCCCC2)NCCc1c[nH]c2ccccc12
    nt	-0.81

(continued)
The line under a structure holds: TAR Tat displ	CDC25B CDK2 inh
- O=C1CSC(c2cccc(NS(=O)(=O)Cc3ccccc3)c2)N1 (stereo not drawn)
    1.5	nt
- CCS(=O)(=O)N1CCCc2ccc(NS(=O)(=O)c3ccc(F)cc3C)cc21
    -1.1	nt
- CN1C(=O)C2(/C(=C(/O)c3ccccc3)C(=O)C(=O)N2CCCN2CCOCC2)c2ccccc21 (stereo not drawn)
    0.48	-0.09
- COc1ccccc1N1CCN(c2nc3ccccc3n3nnnc23)CC1
    -3	-1.1
- CC1Cc2nc(SCC(=O)NCc3ccco3)n(-c3ccc(F)cc3)c(=O)c2S1 (stereo not drawn)
    -1.1	-1.1
- O=c1cc(CSc2ccccc2)nc2sc3c(n12)CCCC3
    2	-0.26
- O=C(O)c1cccnc1SC1CC(=O)N(c2cccc(C(F)(F)F)c2)C1=O (stereo not drawn)
    nt	0.43
- COc1ccc(C2CC(=O)C3=C(C2)NC(C)=C(C(=O)OC(C)C)C3c2cccnc2)cc1 (stereo not drawn)
    -0.02	-1.1
- CCOc1ccc2oc(C)c(C(=O)OCCOC)c2c1
    -0.18	0.47
- CCSc1ncc(Cl)c(C(=O)N(Cc2ccc(N(C)C)cc2)C2CCS(=O)(=O)C2)n1 (stereo not drawn)
    1.4	-0.94

Continued:
The line under a structure holds: TAR Tat displ	CDC25B CDK2 inh
- CCC(C)NC(=O)c1sc2nc3n(c(=O)c2c1C)CCC3 (stereo not drawn)
    2.2	nt
- CCCC1c2ccsc2CCN1C(=O)c1cc(OC)cc(OC)c1 (stereo not drawn)
    nt	1.1
- CC(=O)c1ccc2ccccc2c1OC(=O)c1cccnc1
    nt	-1.6
- Cc1cccc2c1Oc1nc(-c3ccccc3)[nH]c(=O)c1C2
    2.5	-1.7
- O=C(CN1CCSc2ccccc21)NCCc1ccco1
    1	nt
- Cc1nc(C(F)(F)F)ccc1C(=O)NN1CCOCC1
    nt	-0.59
- CC1(C(=O)NC2CCCCC2)Cn2c(cc3occc32)C(=O)N1CCN1CCOCC1 (stereo not drawn)
    4*	nt
- CCN(CC)C1=C(C(=O)N2CCOCC2)S(=O)(=O)c2ccccc21
    1.5	nt
- CCc1ccc(C2=NN(C(=O)C(C)C)C(O)(C(F)(F)F)C2)cc1 (stereo not drawn)
    nt	-0.2
- CN(CC(=O)N1CCc2ccccc2C1)S(=O)(=O)c1ccc2c(c1)CCCC(=O)N2
    0	nt

Next part:
The line under a structure holds: TAR Tat displ	CDC25B CDK2 inh
- CCNC(=O)CCCc1nc(-c2cccs2)no1
    1.3	-0.86
- CN1CCc2c(sc3c2CNC(c2ccc(F)cc2)c2cccn2-3)C1 (stereo not drawn)
    -2.2	2.2
- Cc1cc2nc(COC(=O)c3ccc(NC(=O)C(C)(C)C)cc3)cc(=O)n2o1
    -0.09	nt
- Cc1onc(-c2ccccc2)c1C(=O)Sc1ccc(C(F)(F)F)cn1
    nt	-1.6
- O=C(c1cc(=O)c2cc(Cl)ccc2o1)N(Cc1ccccc1)Cc1ccco1
    -1.1	-1.7
- COCCNC(=O)N1CCC2(CC1)Nc1cc(F)ccc1-n1cccc12
    -0.32	nt
- CN1C(C(=O)NCc2ccco2)=CC(c2ccc(F)cc2)=NS1(=O)=O
    1.7	-1.6
- C=CCCCCCCCCCCCC(O)CC(O)CO (stereo not drawn)
    0.9	nt
- CC(c1ccccc1)N1CNc2c(c(=O)n(C)c(=O)n2C)C1 (stereo not drawn)
    2	-0.61
- Cc1ccc2oc(C(=O)Nc3sc4c(c3C(N)=O)CCCC4)cc(=O)c2c1
    -0.51	-0.97

Part of the list above, reformatted:
| SMILES | TAR Tat displ | CDC25B CDK2 inh |
| --- | --- | --- |
| Cc1onc(-c2ccccc2)c1C(=O)Sc1ccc(C(F)(F)F)cn1 | nt | -1.6 |
| O=C(c1cc(=O)c2cc(Cl)ccc2o1)N(Cc1ccccc1)Cc1ccco1 | -1.1 | -1.7 |
| COCCNC(=O)N1CCC2(CC1)Nc1cc(F)ccc1-n1cccc12 | -0.32 | nt |
| CN1C(C(=O)NCc2ccco2)=CC(c2ccc(F)cc2)=NS1(=O)=O | 1.7 | -1.6 |
| C=CCCCCCCCCCCCC(O)CC(O)CO (stereo not drawn) | 0.9 | nt |

Further entries:
The line under a structure holds: TAR Tat displ	CDC25B CDK2 inh
- CC(=O)Nc1cccc(OCCCNC(=O)c2cccs2)c1
    nt	-1.1
- O=C(NCCN1CCOCC1)c1ccc2c(Cl)c3c(nc2c1)CCC3
    -0.86	-0.79
- CCNc1nc(Oc2ccc(=O)n(-c3ccccc3)n2)nc(N2CCOCC2)n1
    1.1	-0.62
- CCOC(CNC(=S)NC12CC3CC(CC(C3)C1)C2)OCC
    nt	-2.2
- CCOC(=O)C1=C(C)NC2=C(C(=O)CC(c3ccccc3)C2)C1c1cccc(Br)c1 (stereo not drawn)
    2.3	-0.39
- COC(=O)C1=C(N)CC(c2ccccc2)S1 (stereo not drawn)
    nt	-1.2
- CCN(C1=NC2CS(=O)(=O)CC2S1)c1cc(C)cc(C)c1 (stereo not drawn)
    -0.01	-0.57
- OC1(c2ccccc2)CCC2C1CCC2(O)c1ccccc1 (stereo not drawn)
    nt	-1.4
- CC12CN3CC(C)(CN(C1)C3c1ccc3ccccc3c1O)C2=O (stereo not drawn)
    0.79	-1.5
- CCCSc1ncc(Cl)c(C(=O)Nc2nnc(SCC)s2)n1
    1.5	-1.6

Continuation.
The line under a structure holds: TAR Tat displ	CDC25B CDK2 inh
- O=[N+]([O-])c1ccc(OCCCOc2ccc([N+](=O)[O-])cc2)cc1
    nt	-2.2
- COc1cccc(C2=NN3C(C2)c2cc(Br)ccc2OC3c2cccnc2)c1 (stereo not drawn)
    0.56	-0.47
- CN(Cc1ccco1)C(=O)c1c[nH]c2ccc(S(=O)(=O)Nc3ccc4c(c3)OCCO4)cc2c1=O
    2.2	nt
- CC1=C(C(=O)NCCN(C)C)C2(CCN(S(=O)(=O)c3cccs3)CC2)OC1=O
    0.22	nt
- Oc1ccc(NCc2cccs2)cc1
    -0.86	0.83
- CC1CCC(N2CC(=O)N(Cc3ccccc3)C(c3ccc(F)cc3)C2=O)CC1 (stereo not drawn)
    nt	-0.89
- O=C(O)c1nnc(Cl)c2ccccc12
    -0.33	-0.48
- O=C(Cn1cnc(S(=O)(=O)N2CCCCC2)c1)NC1CCCCC1
    -0.78	nt
- COc1ccc(N2CCN(CCNc3nc4ccccc4n4c(C)nnc34)CC2)cc1
    2.5	-0.81
- N/C(=N\NS(=O)(=O)c1cc(C(F)(F)F)cc(C(F)(F)F)c1)c1ccccn1
    nt	2.2

3 compounds from above, ordered by heavy-atom count, smallest number first:
The line under a structure holds: TAR Tat displ	CDC25B CDK2 inh
- O=c1cc(CSc2ccccc2)nc2sc3c(n12)CCCC3
    2	-0.26
- O=C1CSC(c2cccc(NS(=O)(=O)Cc3ccccc3)c2)N1 (stereo not drawn)
    1.5	nt
- CC1=C(C(=O)NCCN(C)C)C2(CCN(S(=O)(=O)c3cccs3)CC2)OC1=O
    0.22	nt

Following part.
The line under a structure holds: TAR Tat displ	CDC25B CDK2 inh
- Cc1cc(-c2ccc(C)c(S(=O)(=O)NCCc3sccc3C)c2)on1
    -0.05	nt
- Cc1ccc(S(=O)(=O)N=S(Cc2ccccc2)Cc2ccccc2)cc1
    nt	1.4
- O=C(O)CCCC(=O)N1CCc2ccccc21
    -0.62	-1.2
- COC(=O)c1cc(C(=O)Nc2cc(C(=O)OC)ccc2C(=O)OC)cc([N+](=O)[O-])c1
    nt	-1.9
- CCOC(=O)N1CCN(C(=O)C2CCCN(C(=O)c3cc4sccc4n3C)C2)CC1 (stereo not drawn)
    3.8	-1.4
- COc1ccccc1CCNc1ncnc2c1nnn2C
    1.7	nt
- COc1ccc(NC(=O)CSc2nnc(C)n3c2cc2oc(C)cc23)cc1
    1.4	nt
- COC(=O)/C(C#N)=C(\NC(=O)c1ccccc1)SC
    nt	-1.7
- O=C(Nc1nnc2n1CCCS2)c1c(F)cccc1Cl
    1.2	nt
- Cc1cccc(C(=O)N2N=C(CC(C)C)CC2(O)C(F)(F)F)c1 (stereo not drawn)
    nt	-0.9

Further entries:
The line under a structure holds: TAR Tat displ	CDC25B CDK2 inh
- O=C(NCCCN1CCCC1)C1CCCN(c2nnc(-n3cccc3)s2)C1 (stereo not drawn)
    0.56	-0.22
- S=C(SCc1ncon1)N1CCSCC1
    nt	-1.9
- Cc1ccc(-c2noc(C(C)NS(=O)(=O)c3ccc(Br)cc3)n2)cc1 (stereo not drawn)
    1.2	-0.87
- O=S(=O)(c1ccc(F)cc1)N1CCCN(Cc2ccccc2F)CC1
    nt	0.47
- Cc1nn(CC(=O)N2CCCC2)c(C)c1S(=O)(=O)N1CCC(C(=O)N2CCCCC2C)CC1 (stereo not drawn)
    0.16	nt
- Cc1cc(C)cc(N(CC(=O)Nc2cc(C)[nH]n2)C2=NC3CS(=O)(=O)CC3S2)c1 (stereo not drawn)
    0.38	-1.5
- COc1ccc(OC)c(C2C3=C(CC(C)(C)CC3=O)Nc3nc(SC)[nH]c(=O)c32)c1 (stereo not drawn)
    1.1	-0.82
- CC(O)C(O)[C@H]1CNc2nc(N)[nH]c(=O)c2N1 (stereo partly drawn)
    nt	-1.2
- COc1cccc2c1Oc1[nH]c(-c3ccccc3)nc(=S)c1C2
    -0.15	-2.2
- CS/C(N)=N/C(N)=Nc1ccc(Cl)cc1
    nt	-0.14

Other entries follow:
The line under a structure holds: TAR Tat displ	CDC25B CDK2 inh
- O=C(CSc1ccc(-c2cccs2)nn1)NCc1ccc(F)cc1
    1.9	nt
- Cn1c(C(=O)N2CCCC(C(=O)NCCc3ccccc3)C2)cc2sccc21 (stereo not drawn)
    nt	0.54
- CN(CCCNC(=O)c1[nH]nc2c1COc1ccccc1-2)C1CCCCC1
    0.61	nt
- O=c1onc(-c2ccccc2)c2ccccc12
    nt	-1.4
- O=C(NCc1cscn1)C1CCN(S(=O)(=O)c2cccc3nsnc23)CC1
    0.65	nt
- CC1Oc2ccc(NC(=O)c3cc(-c4cccs4)on3)cc2NC1=O (stereo not drawn)
    0.25	-5.2
- COC(=O)c1c(C)cc(O)cc1O
    0.27	nt
- COC(=O)c1sccc1NC(=O)Nc1cn(CC(C)C)c(=O)c2ccccc12
    0.3	nt
- CC1(C)CC(NCC(=O)N2c3ccccc3Sc3ccc(Cl)cc32)CC(C)(C)N1
    1.4	0.37
- O=C(CSc1nnnn1-c1ccccc1)Nc1nsc(-c2ccc(Cl)cc2)n1
    0.95	-0.65

Continued.
The line under a structure holds: TAR Tat displ	CDC25B CDK2 inh
- COc1ccc(CSc2nc3ccncc3n2Cc2ccc(F)cc2)cc1
    0.6	-0.64
- COC(=O)c1cccnc1-n1c(=O)[nH]c2ncccc2c1=O
    nt	-1
- COc1ccc(/C(O)=C2/C(=O)C(=O)N(CCCC(=O)O)C2c2cccnc2)cc1 (stereo not drawn)
    -0.25	-0.44
- COc1ccc(Br)cc1CN=C1NS(=O)(=O)C(c2ccccc2)=C1C
    0	-2.2
- CCn1cc(C(=O)OCC(=O)c2ccc(Cl)cc2)c(=O)c2ccc(C)nc21
    1.8	-0.04
- Cc1ccc2[nH]cc(NC(=O)NCCCn3ccnc3)c(=O)c2c1
    -1.1	-0.32
- CCOC(=O)c1cc(C#N)c(N2CCC(C(=O)OCC)CC2)nc1C(F)(F)F
    nt	-1.7
- CC1CN(C(=O)CCC(=O)NC2CCCCC2)c2ccccc2S1 (stereo not drawn)
    2.8	nt
- COc1ccc(C2Nc3c(C)cccc3-c3cc(C)nn32)cc1O (stereo not drawn)
    0.75	-0.69
- CCOC(=O)c1c(C)[nH]c(NC(=O)Nc2ccc(Cl)cc2)c1C
    1.3	-2.6
